Assay outcomes from PubChem.
VDR inhibitor: vitamin D3 receptor (human) inhibition | Potency, µM, for inactives: max response, negative = inhibition, usual class: inhibitors | 0.93% of 400,000 active | AID 504847 | VDR-SRC2-3 peptide fluorescence polarization, 2 h; active = well fitted inhibition curve with a large enough effect; inconclusive = small, poorly fitted or top-dose-only effect, or another doubt; inactive = no such curve, though single readings can be large or run the other way; note: series mostly up to about 120 µM
Target sequence (P11473 whole entry, looked up): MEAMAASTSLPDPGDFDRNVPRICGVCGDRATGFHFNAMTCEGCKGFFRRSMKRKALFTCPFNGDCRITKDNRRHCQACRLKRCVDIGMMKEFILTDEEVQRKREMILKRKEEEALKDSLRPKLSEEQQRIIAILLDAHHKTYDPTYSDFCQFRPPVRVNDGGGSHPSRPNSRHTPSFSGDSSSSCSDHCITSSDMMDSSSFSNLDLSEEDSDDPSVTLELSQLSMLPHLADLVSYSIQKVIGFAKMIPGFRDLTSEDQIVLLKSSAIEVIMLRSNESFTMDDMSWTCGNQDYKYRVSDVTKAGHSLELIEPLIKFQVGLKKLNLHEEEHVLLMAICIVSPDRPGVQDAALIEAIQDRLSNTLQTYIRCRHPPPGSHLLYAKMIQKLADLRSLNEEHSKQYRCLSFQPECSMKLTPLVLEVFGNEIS
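Inhibition of the VDR/SRC2-3 peptide interaction is quantified by fluorescence polarization. Compounds (23 nl, pintool) incubate with the reagents for 2 hours at ambient room temperature.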
* marks the source's active call; other numbers are inactive results; ? = inconclusive; & = joins results of further samples; [ ] = dose if it differs, or a comment. % is set by controls: 0 for no effect and ±100 for the full control effect; potency is the fitted concentration of half-maximal effect. Not all compounds are listed; the hit share may differ from the screen's.

SMILES	VDR inhibitor
CCN(CC)S(=O)(=O)c1ccc(OC)c(NC(=O)OCc2ccccc2)c1	-16%
CN(C)CCOC1(Cc2ccc(F)cc2)CCC(C(C)(C)C)CC1 (configuration not stated)	-14%
CCOC(=O)c1c(S(=O)(=O)N2CCCC(C(=O)Nc3ccccn3)C2)c(C)n(C)c1C (configuration not stated)	3%
CCNC(=O)c1ccccc1-c1nc(-c2ccccc2OC)no1	-11%
CSc1cccc(NC(=O)CCNC(=O)c2ccco2)c1	-15%
Fc1ccc(Cn2nnnc2CN2CCN(C3CCCCC3)CC2)cc1	3%
CCN(C[C@H]1N[C@@](CC)(C(=O)OC)[C@H]2C(=O)N(Cc3ccccc3)C(=O)[C@@H]12)S(=O)(=O)c1ccc(C)cc1	7%
COc1cc(C(Nc2ccccn2)c2ccc3ccc(C)nc3c2O)cc(OC)c1O (configuration not stated)	18µM*
CCOc1ccc(S(=O)(=O)NCCC(=O)N2CCC(Cc3ccccc3)CC2)cc1	17%
CC1CCc2c(nc3ncnn3c2N2CCN(c3ccccc3F)CC2)C1 (configuration not stated)	-2%
CC1CCN(C(=O)c2cccc(NC(=O)c3cccs3)c2)CC1	0%
CCOC(=O)c1ccc(-n2c(CCC(=O)O)ccc2-c2ccccc2)cc1O	?
Cc1ccc(NC(=O)c2ccc(S(=O)(=O)N3CCCCCC3)cc2)nc1	-24%
COc1cc(C(=O)OCC(=O)N2CCCCC2C)ccc1OCc1c(C)noc1C (configuration not stated)	-13%
COc1cccc(Cn2c(=O)c(-c3cccs3)nc3cnc(Nc4ccccc4)nc32)c1	4%
CCCn1c(N)c(N(CCOC)C(=O)c2ccc(F)cc2F)c(=O)[nH]c1=O	5%
COc1ccc(O)c(/C=N/NC(=O)c2c(C)nnn2-c2nonc2N)c1	-11%
CC(NC(=O)/C(=C/c1cccc([N+](=O)[O-])c1)NC(=O)c1ccco1)C(=O)O (configuration not stated)	-12%
CC(C)CC(C(=O)NC(C)(C)C)N(Cc1cccs1)C(=O)c1snc(C(N)=O)c1N (configuration not stated)	15%
C=CCn1c(SCC)nc2sc3c(c2c1=O)CCc1ccccc1-3	-9%
O=C(Nc1ccccn1)c1csc2c1CCCC2	3%
Cc1cc(NC(=O)c2c(-c3c(F)cccc3Cl)noc2C)no1	-3%
CCc1ccc(OCc2ccc(C(=O)NCc3ccccn3)o2)cc1	11%
NS(=O)(=O)c1cc(C(=O)OCC(=O)c2ccc3c(c2)OCCO3)ccc1Cl	-19%
O=C(NCc1ccccn1)c1ccc(OC2CCN(Cc3ccc(CO)o3)CC2)cc1	-1%
CC(=O)c1c(C)[nH]c(C(=O)NCCN2CCC(C)CC2)c1C	15%
CCOC(=O)c1cc(-c2ccccc2)n(CCCC(=O)Nc2cccc(Cl)c2C)c1C	9%
Cc1ccc(S(=O)(=O)N(C)C)cc1NC(=O)COC(=O)C1CCCC1	-4%
O=C(NCCCC1CCCC1)C1CCC(=O)N(Cc2ccccc2F)C1 (configuration not stated)	-29%
CN(C)/C=N/c1nc(-c2ccc3c(c2)OCO3)cs1	-5%
O=C(Nc1cccc(C(F)(F)F)c1)Nc1ccon1	0%
Cc1ccc(C2=NN(CC(=O)NCCN(CC(C)C)CC(C)C)C(=O)CC2)cc1	?
CC(=O)c1ccc(S(=O)(=O)N2CCC(c3nnc(SCCN4CCCC4)n3C)CC2)cc1	-6%
COc1cc(C2CC(=O)Oc3c2c(=O)n(C)c2ccccc32)cc(OC)c1OC (configuration not stated)	-20%
O=C(CC(C(=O)N1CCc2ccccc21)n1ccnc1)N1CCc2ccccc2C1 (configuration not stated)	6%
COCCn1c(=NC(=O)c2ccco2)sc2cc(C(=O)OC)ccc21	-7%
CC1CC(NC(=O)C2(C)CC2(Cl)Cl)CC(C)(C)C1 (configuration not stated)	5%
Cc1csc(NC(=O)C2CCN(C(=O)c3ccccc3C)CC2)n1	-12%
CC(=O)Nc1ccc(NS(=O)(=O)c2ccc(C)cc2)cc1[N+](=O)[O-]	7%
COC(=O)c1ccc(Oc2nc3c(c(=O)n(C)c(=O)n3C)n2CCC(C)C)cc1	11%
Cc1cccn2c(=O)c3cc(C(=O)NCC(C)C)sc3nc12	-2%&2%
CN(Cc1ccc(Cl)s1)C(=O)CCl	?
COc1cccc(NC(=O)[C@H](NC(=O)[C@@H]2Cc3ccccc3CN2)c2ccccc2)c1	3%
O=[N+]([O-])c1ccc2oc(C3CCCCC3)nc2c1	10%
CC(=O)c1ccc(N2CCN(c3ccc4cc(S(=O)(=O)N5CCC(C)CC5)ccc4n3)CC2)cc1	19%&10%
O=C(Cn1c(=O)n(-c2ccccc2)c(=O)c2c3c(sc21)CCC3)c1ccc(Br)cc1	-14%
Cc1cccc2c(=O)cc(C(F)(F)F)[nH]c12	0%
CC1Cc2ccccc2N1C(=O)CSc1nncs1 (configuration not stated)	-8%
Cc1ccc(C(=O)N2CCN(C34CC5CC(CC(C5)C3)C4)CC2)o1	-4%
CC(C)CNC(=O)C(=O)NN=C1CCCCCC1	8%

New compounds follow:
SMILES	VDR inhibitor
COCC(=O)N1CCC[C@@]2(CCN(Cc3ccc(C#N)cc3)C2)C1	-2%
COc1ccc(NC(=O)CSCC(=O)Nc2ccccc2N2CCCC2)cc1	-8%
COc1ccc(/C=N/n2c(C)nc3sc(C)c(C)c3c2=O)cc1OC	1%
O=C(C[C@@H]1C/C=C\CC[C@H](Cc2ccc(F)cc2)C(=O)OC[C@@H]2CCCN2C1=O)N[C@H](CO)Cc1ccccc1	4%
N/C(=N\OC(=O)COc1ccc(Br)cc1)c1cccnc1	-14%
CCOC(=O)C(=O)Nc1nnc(COc2ccccc2)s1	7%
CC(NC(=O)c1cccs1)c1ccc(Br)cc1 (configuration not stated)	5%
CC1=CCC2C(=O)N(c3ccc(C)cc3)C(=O)C2C1 (configuration not stated)	15%
Cc1nn(C)c(=S)[nH]c1=S	5%
CCO[C@H]1OC(C(=O)N2CCOCC2)=C[C@@H](c2ccc3c(c2)OCO3)[C@@H]1CCCO	-20%
COc1ccc(C2c3ccc(O)cc3Oc3ncn4nc(-c5cccnc5)nc4c32)cc1OC (configuration not stated)	6%
O=C(Nc1nc(-c2ccc(Cl)cc2)cs1)C1=COCCO1	-12%
COc1ccccc1-c1cccc([C@@H]2C[C@H]3[C@@H](CN2)CON3C)c1	-10%
COc1ccc(CNC(=O)C(c2ccncc2)N(C(=O)Cc2cccs2)c2cccnc2)cc1 (configuration not stated)	6%
O=C(CCC(=O)N1CCSc2ccccc21)NCc1ccccc1	-16%
O=C(NC(=S)NCc1ccccc1)c1ccc(Br)cc1	16%
C=C1C(=O)OC2C[C@@]3(C)CCCC(C)C3=CC12 (some centres not stated)	40µM*
CC(C)c1nn2c(=O)cc(COc3cccc(NC(=O)c4ccco4)c3)nc2s1	-32%
Cc1ccc(N2C(=O)CC(n3ccnc3)C2=O)cc1C (configuration not stated)	1%
Cc1ccc(CNC(=O)C2c3ccccc3C(=O)N(C)C2c2c[nH]c3ccccc23)o1 (configuration not stated)	10%
CCOC(=O)C1=C(C)N(CCCCCC(=O)O)C(=O)NC1c1ccc(Br)cc1 (configuration not stated)	-4%
COc1ccc(OC)c(C2C(C(=O)c3cccs3)=C(O)C(=O)N2CCN(C)C)c1 (configuration not stated)	2%
CCn1c(C(=O)O)c(CC(=O)N(C)c2ccc(OC)cc2OC)c2ccccc21	-8%
CCOc1ccccc1N(CC(=O)Nc1cccc2ccccc12)S(C)(=O)=O	-7%
CCn1c(=NC(=O)c2cccc(N3C(=O)CCC3=O)c2)sc2c(OC)ccc(OC)c21	18%
CCCCn1nc2cc(C(=O)NCc3ccccc3OC)ccc2c1OCC	-12%
Cc1nn(-c2ccccc2)c2c1C1(C(=O)N3c4c(cccc41)C(C)CC3(C)C)C(C#N)=C(N)O2 (configuration not stated)	113%[activator]
CCSc1nnc(NC(=O)CSc2nc3c(c(=O)n2C)SC(C)C3)s1 (configuration not stated)	10%
CC(=O)c1cccc(OCc2cc(C(=O)NC3CCN(Cc4ccccc4)CC3)no2)c1	2%
CC(C)COc1cccc(C(=O)Nc2ccc(S(=O)(=O)N3CCOCC3)cc2)c1	-8%
COc1ccc(S(=O)(=O)N2CCOCC2)cc1NC(=O)CN1C(=O)NC2(CCCC2)C1=O	8%
CCCS(=O)(=O)c1c(S(=O)(=O)CCC)c2cc(CC)ccn2c1C(=O)OC	12%
CCOC(=O)c1scc(-c2ccccc2)c1S(=O)(=O)N1CCN(c2ccc(Cl)cc2)CC1	7%
CCOC(=O)c1c(C)[nH]c(C)c1C(=O)COC(=O)c1cccnc1SC	13%
Cc1ccccc1Nc1nc(-c2cccnc2)nc2ccccc12	-12%
CCC(=O)c1cn([C@H](CCC(OC)OC)CC(=O)OC(C)(C)C)cc1CC	-7%
COc1ccc(OC)c(NC(=S)NN2CCN(C)CC2)c1	10%
O=C(COc1ccccc1)Nc1cccc(-c2nnc(-c3ccccc3)o2)c1	-9%
COc1ccc(-c2nnn(CC(=O)NCc3cccs3)n2)cc1OC	-7%
CCCOc1ccc([C@@H]2C3CN(C(=O)OCC)CC=C3C(C#N)=C(N)C2(C#N)C#N)cc1OC (some centres not stated)	-14%
O=C(OCC(=O)N1CCN(S(=O)(=O)c2ccc(Cl)cc2)CC1)c1cc(Br)ccc1O	-11%
NC(=O)CS(=O)(=O)c1ccc(Cl)cc1	-1%
CC1CC(C(F)(F)F)n2ncc(C(=O)O)c2N1 (configuration not stated)	0%
CCOC1OC2C(CO)OC(n3cnc4c(N)ncnc43)C2O1 (configuration not stated)	-28%
Cc1cccc(NC(=O)C2CCCN2C(=O)Oc2ccccc2)c1 (configuration not stated)	30%[activator]
OC(c1ccccc1)c1nc2ccccc2n1Cc1c(F)cccc1Cl (configuration not stated)	14%
C1=CC(c2cc3ccccc3o2)OC(CCc2ccccc2)C1 (configuration not stated)	5%
CCOCCCNC(=O)c1cn(C)c2ccc(S(=O)(=O)N3CCCC3)cc2c1=O	-9%
COc1ccc(N2CCN(S(=O)(=O)CCNC(=O)C34CC5CC(CC(C5)C3)C4)CC2)cc1	-7%
O=C(CN1CCN(CN2C(=O)NC3(CCCCCC3)C2=O)CC1)Nc1cccc(F)c1	23%

Later entries.
SMILES	VDR inhibitor
COc1ccc(S(=O)(=O)CC(=O)Nc2nnc(C(F)(F)F)s2)cc1	7%
COc1ccc(NC(=O)CN(C)C(=O)c2cn(-c3ccccc3)nc2-c2cccs2)cc1	?
COc1ccc2[nH]c3c(c2c1)CCN1C(=O)C(CC(=O)NCCCN(C)C)C[C@H](C(=O)N2CCCCC2)[C@@]31CCc1ccccc1 (some centres not stated)	-2%
O=C(COc1ccc(Cl)cc1Cl)NN1C(=O)/C(=C\c2ccc(Cl)cc2)SC1=S	23%
Cn1/c(=N/NC(=O)c2cccc(OC(F)F)c2)sc2ccccc21	5%
COc1ccccc1NC(=O)CSc1nnc2ccccn12	2%
Cc1ccc2oc(=O)c(S(=O)(=O)c3ccc(F)cc3)cc2c1	-9%
CCc1ccccc1N(CC(=O)NC(C)(C)C)C(=O)CCC(=O)Nc1ccccn1	0%
CC(NC(=O)c1ccc(F)cc1)c1nc2ccccc2[nH]1 (configuration not stated)	6%
COCCNC(=O)c1ccc2ccccc2n1	13%
Cc1ccc(-c2nc3ccccc3o2)cc1NC(=S)NC(=O)c1cccs1	14%
Cc1cc(C)n(-c2nc(SCCN(C)C)c3c4c(sc3n2)COC(C)(C)C4)n1	7%
O=C(Nc1cccnc1)c1cc(-c2cc(Cl)ccc2O)n[nH]1	-14%
Cc1cnc(C(=O)OCC(=O)c2ccc(F)c(F)c2)cn1	2%
COc1ccc2nc(SCc3ccccc3)nc(C)c2c1	-3%
O=C(Nc1cccc(C(F)(F)F)c1)c1scc2c1OCCO2	2%
CN1CCN(c2ccc(S(=O)(=O)N3CCCCC3)cc2NC(=O)/C=C/c2ccc(Cl)c([N+](=O)[O-])c2)CC1	4%
CCOc1ccc(NC(=O)Cn2cc(C(=O)c3ccc(F)cc3)c(=O)c3cc4c(cc32)OCO4)cc1	-6%

By substructure, the entries above containing an NH in an aromatic ring (9)
SMILES	VDR inhibitor
CCCn1c(N)c(N(CCOC)C(=O)c2ccc(F)cc2F)c(=O)[nH]c1=O	5%
CC(=O)c1c(C)[nH]c(C(=O)NCCN2CCC(C)CC2)c1C	15%
Cc1cccc2c(=O)cc(C(F)(F)F)[nH]c12	0%
Cc1nn(C)c(=S)[nH]c1=S	5%
Cc1ccc(CNC(=O)C2c3ccccc3C(=O)N(C)C2c2c[nH]c3ccccc23)o1 (configuration not stated)	10%
CCOC(=O)c1c(C)[nH]c(C)c1C(=O)COC(=O)c1cccnc1SC	13%
COc1ccc2[nH]c3c(c2c1)CCN1C(=O)C(CC(=O)NCCCN(C)C)C[C@H](C(=O)N2CCCCC2)[C@@]31CCc1ccccc1 (some centres not stated)	-2%
CC(NC(=O)c1ccc(F)cc1)c1nc2ccccc2[nH]1 (configuration not stated)	6%
O=C(Nc1cccnc1)c1cc(-c2cc(Cl)ccc2O)n[nH]1	-14%
